Assay outcomes (PubChem BioAssay)
miR-21 reporter: qHTS Assay for Modulators of miRNAs and/orActivators of miR-21 | AID 2288, 2010 | Potency, µM (top dose mostly 38.3 µM), inactives show at the highest dose reporter change, positive = more light | HeLa miR-21 FLuc reporter, luciferase, 48 h | 340,000 tested, under 10 active; active = well fitted rising curve with a large enough effect; inconclusive = small, poorly fitted or top-dose-only effect; inactive = no such curve, though single readings can be large or run the other way;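 also: % of control where 0% means no effect; miR-21 action dims this reporter so a rising signal means less miR-21 action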
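HeLa miR-21-FLuc reporter line, endogenous miR-21; 2000 cells/well in DMEM/10% FBS; compound titration up to ~40uM final, 48 h, 37 degree Celsius; luciferase detection reagent, 15 min lysis, CCD luminescence.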
The depositor's hits bear a star; u = inconclusive; [ ] = remark or other dose.

mol	miR-21 reporter
O=C(C1CC1)N1CCN(c2nc3c(F)cc(F)cc3s2)CC1	-33%
COC(=O)c1ccc(NC(=O)CN(C)S(=O)(=O)c2ccc3c(c2)CCCC(=O)N3)cc1	21%
Cc1ccc(C2c3[nH]c4ccccc4c3CCN2C(=O)CSc2ccccc2)cc1 (stereo not drawn)	24%
COc1ccc(NC(=O)CSc2nnc(-c3nonc3NC(C)=O)n2C)cc1Cl	-7%
COC(=O)c1c(-c2ccc(Cl)cc2)noc1N1CCN(c2cc(C)ccc2C)CC1	-3%
CCOC(=O)c1c(-c2ccccc2)oc2ccc(N(C(C)=O)S(=O)(=O)c3ccc(C)cc3)cc12	5%
COc1ccccc1CNC(=O)CCNS(=O)(=O)c1ccc2c(c1)CCCC(=O)N2	2%
COc1ccc(-n2cc(-c3ccccc3)c3c(NC4CCCCC4)ncnc32)cc1	-4%
CCc1cccc(NC(=O)CCS(=O)(=O)c2cc3c4c(c2)CCN4C(=O)CC3)c1	-1%
CC(=O)N1CCc2cc(Br)cc(S(=O)(=O)CCC(=O)N3CCN(c4ccccc4Cl)CC3)c21	5%
COc1ccc(C(C)=O)cc1CSc1nc(NCc2ccccc2)c2ccccc2n1	u
CC1CCC(Nc2ncnc3onc(-c4ccc(Cl)cc4)c23)CC1 (stereo not drawn)	-9%
CCN(C(=O)C1CCN(c2ncnc3c2nc2n3CCCCC2)CC1)c1cccc(Cl)c1	14%
CC(C)c1nc2ccc(C(=O)NCCCN3CCN(c4ccccc4F)CC3)cc2o1	10%
CCOC(=O)c1c(C)oc2nc(C)nc(N(C)Cc3ccccc3)c12	0%
COc1cccc(C(=O)N2c3ncnn3C3(CCCCC3)[C@@H]3CCCC[C@@H]32)c1	7%
Cc1ccc(NC(=O)Cn2ncn3c(cc4ccccc43)c2=O)cc1C	3%
Cc1ccc2[nH]c3c(=O)n(CC(=O)N(C)Cc4ccccc4)ncc3c2c1	3%
O=C(CC1N=C2c3ccccc3N=C(SCc3cccc(Cl)c3)N2C1=O)NCc1ccc2c(c1)OCO2 (stereo not drawn)	25%
O=C(CN1C(=O)COc2ccc(S(=O)(=O)N3CCOCC3)cc21)N1CCN(c2ccccc2)CC1	2%
CCOc1ccc(OCC)c(NC(=O)C2CCCN(S(=O)(=O)c3cc(Br)cc4c3N(C(=O)CC)CC4)C2)c1 (stereo not drawn)	0%
CSc1ccc(CCNC(=O)CCc2c(C)nc3c(-c4ccccc4)c(C)nn3c2C)cc1	23%
COc1ccc(C(=O)Nc2ccc(C(=O)OCc3cc(=O)n4nc(C5CC5)sc4n3)cc2)cc1	-7%
COc1cccc(OCCSc2nc3ccccc3n2CC(=O)N2CCCCC2)c1	20%
O=C(Nc1ccc(O)c(-c2nc3ccccc3o2)c1)c1sc2ccccc2c1Cl	-6%
Fc1ccc(N2CCN(c3ncnc4[nH]ncc34)CC2)cc1	-20%
CCc1ccc(CNC(=O)C2CCCN(c3nn4cc(-c5ccc(F)cc5)nc4s3)C2)cc1 (stereo not drawn)	-7%
Cc1ccc(Cl)cc1-n1c(=O)c2sc3ccccc3c2n(CC(=O)NC2CCCCC2)c1=O	0%
CNC(=O)c1c(NC(=O)c2ccc(S(=O)(=O)N3CCCCC3C)cc2)sc2c1CCC2 (stereo not drawn)	4%
COc1ccc(-c2cn3c(n2)sc2cc(C(=O)Nc4ccc(C)c(C)c4)ccc23)cc1	18%
CCc1nn(CC(=O)N2CCN(c3cccc(C)c3C)CC2)c(=O)c2cc3occc3n12	0%
COc1ccccc1N1CCN(C(=O)CN2C(=O)COc3ccc(S(=O)(=O)N4CCCCCC4)cc32)CC1	12%
COc1ccccc1Cc1nc2ccccc2nc1SCC(=O)Nc1c(C)cccc1C	0%
CCCc1nn2c(=O)cc(COC(=O)c3ccc(NC(=O)C4CCCCC4)cc3)nc2s1	-1%
Cc1ccc(C)c(NC(=O)CSc2ncc3c(n2)-c2cc(Cl)ccc2N(Cc2ccccc2F)S3(=O)=O)c1	-3%
CCOC(=O)CN(Cc1ccccc1)C(C(=O)NC1CCCCC1)c1ccccc1 (stereo not drawn)	u
CCOC(=O)c1c(C)n(-c2ccccc2)c2ccc(OC(=O)COc3ccc(Cl)cc3)cc12	-3%
Nc1nnc(SCC(=O)Nc2ccccc2C(F)(F)F)s1	-7%
COC(=O)c1ccc(NC(=O)CCc2c(C)nn(-c3ccc(N4CCOCC4)nn3)c2C)cc1	-47%
COc1cc2c(cc1OC)C1O[C@](c3ccsc3)(C2)Oc2cc(-c3ccccc3)oc(=O)c21	-17%[7.66 µM]
COc1ccc(NC(=O)Cn2c(C)c3cnn(-c4ccccc4)c(=O)c3c2C)c(OC)c1	-1%
COc1ccc(CNC(=O)c2cc3c(=O)[nH]c4ccc(C)cc4c3s2)c(OC)c1	-4%
COc1ccc(CCNC(=O)CN(c2cc(C(F)(F)F)ccc2Cl)S(C)(=O)=O)cc1	-8%
CC(=O)NCC(c1ccc2c(c1)OCO2)N1CCN(c2ccccc2)CC1 (stereo not drawn)	-2%
COc1ccc(C)cc1NC(=O)COCc1cc(-c2cccs2)on1	-8%
CCC(Cn1nnc2ccccc2c1=O)NC(=O)Nc1ccccc1OC (stereo not drawn)	-14%
Cc1ccc(CNC(=O)C(C(C)C)N2Cc3ccccc3C2=O)cc1 (stereo not drawn)	-3%
COc1cc(-c2nnc(SCC(=O)NC(C)C)o2)cc(OC)c1OC	-7%

By substructure: those above containing fluorine (7)
mol	miR-21 reporter
O=C(C1CC1)N1CCN(c2nc3c(F)cc(F)cc3s2)CC1	-33%
CC(C)c1nc2ccc(C(=O)NCCCN3CCN(c4ccccc4F)CC3)cc2o1	10%
Fc1ccc(N2CCN(c3ncnc4[nH]ncc34)CC2)cc1	-20%
CCc1ccc(CNC(=O)C2CCCN(c3nn4cc(-c5ccc(F)cc5)nc4s3)C2)cc1 (stereo not drawn)	-7%
Cc1ccc(C)c(NC(=O)CSc2ncc3c(n2)-c2cc(Cl)ccc2N(Cc2ccccc2F)S3(=O)=O)c1	-3%
Nc1nnc(SCC(=O)Nc2ccccc2C(F)(F)F)s1	-7%
COc1ccc(CCNC(=O)CN(c2cc(C(F)(F)F)ccc2Cl)S(C)(=O)=O)cc1	-8%

(further entries)
mol	miR-21 reporter
Cc1ccc(NC(=O)c2c(C)oc3ccc(O)c(CN4CCCCCC4)c23)cc1	22%
Cc1ccc(CN2C(=O)C3(SCC(=O)N3c3ccc(C)c(C)c3)c3ccccc32)cc1 (stereo not drawn)	u
O=C(NCc1ccc(Cl)cc1)c1ccc2c(c1)N(Cc1ccccc1F)C(=O)c1ccccc1S2=O (stereo not drawn)	-4%
CN(C(=O)CSc1nc2ccccc2n1CC(=O)N(C)C1CCCCC1)c1ccccc1	1%
CC(=O)N1CCCc2cc(S(=O)(=O)N3CCC(C(=O)NC4CCC(C)CC4)CC3)ccc21 (stereo not drawn)	-6%
CC(=O)c1ccc(Oc2ncnc3c2oc2ccccc23)cc1	-66%
Cc1ccc(C)c(NC(=O)CSc2nc(=O)n(CCN3CCOCC3)c3c2CCC3)c1	-2%
Cc1oc2ncn(C)c(=O)c2c1C(=O)Nc1ccccn1	7%
CCOC(=O)N1CCN(C(=O)c2cnn(-c3cccc(F)c3)c2-n2cccc2)CC1	-6%
CCOc1ccc(Nc2nc3c(S(=O)(=O)c4ccc(C(C)C)cc4)nnn3c3ccsc23)cc1	4%
COc1ccc(/C=C/C(=O)Nc2nc(-c3cccs3)ns2)cc1OC	20%
CCCS(=O)(=O)c1ncc(Cl)c(C(=O)N2CCN(c3ccc(OC)cc3)CC2)n1	u
COc1ccc(N2CCN(CCCNC(=O)c3cc(Nc4ccccc4OC)nc4ccccc34)CC2)cc1	30%
Cc1ccc2oc(=O)c3cnn(CC(=O)Nc4cccc(C(F)(F)F)c4)c3c2c1	-3%
O=C(NCc1ccc2c(c1)CCN2C(=O)c1ccccc1)c1ccccc1	18%
Cc1nc(-c2cccc(F)c2)sc1CCNC(=O)C(=O)Nc1ccc2c(c1)OCCO2	-1%
CC1=C(C(=O)Nc2cccc(C)c2C)C2(CCCCC2)OC1=O	3%
Cc1cc(C)n2c(Nc3ccc(C(C)C)cc3)c(-c3ccsc3)nc2n1	2%
COc1cc2c(cc1OC)C(COc1ccc(F)cc1)N(C(=O)Cc1ccccc1)CC2 (stereo not drawn)	-1%
Cc1ccc(CNC(=O)C2CCN(S(=O)(=O)c3ccc4c(c3)oc(=O)n4C)CC2)cc1	-1%
Cc1ccc(S(=O)(=O)NCc2nc3nc(C)cc(C)n3n2)cc1	-1%
O=C(NC1CC(=O)N(c2cccc(F)c2)C1)C1CC1 (stereo not drawn)	-1%
O=C(NCC(c1cccnc1)N1CCc2ccccc21)c1cccc(Br)c1 (stereo not drawn)	26%
CC(=O)c1ccc(NC(=O)COCc2cc(-c3ccc(F)cc3)on2)cc1	-3%

In another format: entries from further up.
Cc1ccc(S(=O)(=O)NCc2nc3nc(C)cc(C)n3n2)cc1
  miR-21 reporter: -1%

CC1=C(C(=O)Nc2cccc(C)c2C)C2(CCCCC2)OC1=O
  miR-21 reporter: 3%

O=C(NCC(c1cccnc1)N1CCc2ccccc21)c1cccc(Br)c1 (stereo not drawn)
  miR-21 reporter: 26%

O=C(NC1CC(=O)N(c2cccc(F)c2)C1)C1CC1 (stereo not drawn)
  miR-21 reporter: -1%

Following part
mol	miR-21 reporter
COc1ccccc1N1CCN(C(=O)Cn2c(=O)n3nc(-c4ccc(C)cc4)nc3c3ccccc32)CC1	-5%
COc1cccc(N2CC(NC(=O)C3CCCCC3)CC2=O)c1 (stereo not drawn)	0%
CCc1ccccc1Nc1nn2c(=O)c3ccc(C(=O)NCc4ccccc4OC)cc3nc2s1	15%
COc1cc(NC(=O)COCc2cc(-c3ccc4c(c3)OCO4)on2)cc(OC)c1	25%
CCOC(=O)c1ccccc1NC(=O)Cn1c2ncccc2c(=O)n1-c1ccccc1	4%
O=C(Cn1c(-c2cccs2)cc2ccccc21)N1CCN(c2ccc(Cl)cc2)CC1	-1%
CCOC(=O)c1cc(NC(=O)c2ccc(F)cc2)c(=O)n2c1oc1ccc(Cl)cc12	-10%
CCS(=O)(=O)c1nc(S(=O)(=O)c2ccc(Cl)cc2)c(NCc2ccccc2Cl)s1	-3%
Cc1ccccc1NC(=O)CSc1cn(CC(=O)N2CCCCCC2)c2ccccc12	27%
COc1ccc(CCNC(=O)CCn2c(=O)c3ccccc3n(Cc3cc(C)ccc3C)c2=O)cc1OC	-7%
COc1ccc(CC(=O)NCCc2csc(-c3cccc(C)c3)n2)cc1	-8%
COc1ccc(OC)c(CNC(=O)C2CCN(S(=O)(=O)c3cn(C)cn3)CC2)c1	1%
COc1cn(CC(=O)Nc2c(C)cc(C)cc2C)c(CN2CCCCC2)cc1=O	0%
Cc1ccc(NC(=O)Cn2c(=O)n(Cc3ccco3)c(=O)c3oc4ccccc4c32)cc1C	-2%
O=C(CN1C(=O)COc2ccc(S(=O)(=O)N3CCCCCC3)cc21)N1CCN(c2ccccc2)CC1	4%
CCOc1ccc(C(=O)Nc2ccc3oc(-c4cccnc4)nc3c2)cc1	-4%
CC(=O)N1CCCc2cc(S(=O)(=O)N3CCC(C(=O)NCc4ccccc4)CC3)ccc21	-1%
Cc1cccc(C(=O)Nc2ccc(C(=O)OCc3cc(=O)n4c5c(sc4n3)CCCC5)cc2)c1	-1%
CCc1cccc(NC(=O)c2c(N3CCCC3=O)c3cc(C)ccc3n2C)c1	u
CCc1ccc(NC(=O)c2ccc3c(=O)n4nc(Nc5ccccc5C)sc4nc3c2)cc1	1%
Cc1ccc(-n2c(SCC(=O)Nc3c(C)cccc3C)nc(O)c(C)c2=O)cc1	-4%
CC(=O)c1ccc(NC(=O)CC2Oc3ccc(C)cc3NC2=O)cc1 (stereo not drawn)	-7%
CCc1cc2c(cc3c(=O)n(CC(=O)NC(C)c4ccccc4)ncn32)s1 (stereo not drawn)	4%
CCN(CC)CCCNC(=O)C1CCN(S(=O)(=O)CC)CC1	-2%
Cc1ccc(Nc2c(-c3ccc(N4CCOCC4)cc3)nc3c(C)cccn23)cc1	-1%
CCN(CC)S(=O)(=O)c1nnc(NC(=O)c2ccccc2Cl)s1	-2%
CCOc1ccc(CNC(=O)C2CCCN(c3nc4c(C)cc(C)cc4s3)C2)cc1 (stereo not drawn)	-12%
Cc1ccc(Nc2c(-c3ccc(N4CCOCC4)cc3)nc3ccc(C)cn23)cc1	-6%
CCC(C)NC(=O)CCc1c(C)nc2cc(-c3ccc(OC)cc3OC)nn2c1C (stereo not drawn)	-10%
CCC(=O)N1CCc2cc(Br)cc(S(=O)(=O)CCC(=O)NCc3ccc(C)cc3)c21	5%
Cc1ccc(-c2cn3c(n2)sc2cc(C(=O)NC4CCCCCC4)ccc23)cc1	23%
COc1cccc(C(=O)NCc2cn3ccccc3n2)c1	18%
CCc1c(C)c2ccc(O)c(CN3CCN(c4ccccc4)CC3)c2oc1=O	-74%
CCc1cccc(NC(=O)CC2Oc3ccc(C)cc3NC2=O)c1 (stereo not drawn)	-8%
Cc1ccc(S(=O)(=O)N2CCCc3cc(NS(=O)(=O)c4ccc(F)c(C)c4)ccc32)cc1	23%

These rows are one share of the data (hit frequency here may not be typical).
